FGF22 binding: binders of human FGF22 protein, primary screen, FGF22 synaptogenesis inhibitor project, biophysical, thermal shift, single point; Fibroblast growth factor 22 (Homo sapiens), Q9HCT0; recombinant FGF22 thermal shift, SYPRO orange fluorescence; percent of sucrose octasulfate shift, DMSO zero; calls only at 9.99 µM; 1.5% of 340,000 active; AID 651658, 2012;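 active = melting point raised past a set limit in the mean and every replicate; three in four hits are not shown here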
Target sequence (Q9HCT0 whole entry, looked up): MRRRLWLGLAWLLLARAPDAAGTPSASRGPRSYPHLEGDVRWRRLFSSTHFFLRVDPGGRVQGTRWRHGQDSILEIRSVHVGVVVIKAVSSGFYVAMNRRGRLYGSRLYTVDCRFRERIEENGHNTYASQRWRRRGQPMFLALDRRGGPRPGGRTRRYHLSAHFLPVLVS
rRNA inh HTS: reduced GFP signal of wild-type E. coli, primary screen, bacterial rRNA inhibitor project, GFP/RFP fluorescence, OD600, single point; GFP signal change (wild-type ribosome), % (test concentration not listed); E. coli WT GFP vs humanized-ribosome RFP mutants, 24 h; active compounds read low; DMSO median 0, no signal -100; 1.6% of 350,000 active; AID 720706, 2013;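 active = significant combined selectivity score with lowered wild-type GFP, culture density cut under 30%, mutant RFP and density less affected; inactive = any of these conditions unmet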; also: one replicate is shown; some compounds called inactive have numbers as strong as hits
rRNA inh HTS OD600: second read-out of rRNA inh HTS, no call of its own (marks repeat the call); OD600 change, %; measured here: OD600 growth;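 optical density of the mix in the first replicate; 0 = DMSO median and -100 = no signal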
rRNA inh HTS RFP: recorded beside rRNA inh HTS, whose call it bears; RFP signal change, %; measured here: RFP humanized mutant strains;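 first replicate; 0 = DMSO median and -100 = no signal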
* = called active by the depositor; i = inactive; + = active, no number. Not all compounds are listed. The share of hits here may be higher or lower than overall.

SMILES	FGF22 binding	rRNA inh HTS	rRNA inh HTS OD600	rRNA inh HTS RFP
Cc1cc(O)cc(=O)n1-c1cc(F)c(F)c(F)c1	i	5	11	0.7
CCCCNC(=O)C[C@@H]1C[C@@]2(C(=O)OC)CCCCC=C2N(CCc2ccc(OC)c(OC)c2)C1=O	i	4	10	-0.2
COc1cccc(-c2ccc3c(c2)[C@@H]2[C@@H](CCN2S(=O)(=O)C2=NC(C)C=N2)[C@@H](CO)N3C)c1 (some centres undefined)	i	-7	-6	1.7
Cc1noc(C)c1NC(=O)Nc1ccc2c(c1)CC(=O)N([C@@H](C)CO)C[C@H](C)[C@H](CN(C)Cc1ccc(Oc3ccccc3)cc1)O2	i	-10	-51	10
CS(=O)(=O)N1C[C@@H](O)COC[C@H]2O[C@@H](CC(=O)NCc3ccccc3)CC[C@@H]21	i	-1	-8	-1.6
O=C(NCc1cccc(C(F)(F)F)c1)C1C(=O)Nc2ccccc2C(=O)N1Cc1ccccc1 (centres undefined)	i	7	3	5.8
CNC(=O)C[C@H]1CC[C@H]2[C@H](COc3ccc(NC(=O)Cc4cccs4)cc3C(=O)N2C)O1	i	3	-2	-0.3
COC(=O)[C@@H](N[C@H](/C=C/c1ccccc1)[C@@H](O)Cc1ccccc1)c1ccccc1	i	2	6	6.4
COc1ccc(N2C(=O)c3[nH]nc(-c4ccccc4)c3C2c2ccc(F)cc2)cc1 (centres undefined)	i	-30	-60	16
COc1cc2c(c(OC)c1OC)CC(c1ccccc1)=C(c1ccccc1)CC2NC(=O)C(F)(F)F (centres undefined)	i	16	19	6.5
O=C(c1ccccn1)N1CC[C@H]2[C@H](CO)Nc3ccc(-c4cccc(F)c4)cc3[C@H]21	i	-3	-4	4.1
O=C(N[C@H](Cc1ccccc1)C(=O)NC1CCCCC1)[C@H]1O[C@@H](n2ccc(=O)[nH]c2=O)[C@H](O)[C@@H]1O	i	11	7	2.4
CCC(=O)N1CC(=O)N2[C@@H](CO)[C@@H](c3ccc(C#CCC(C)C)cc3)[C@@H]2C1	i	-2	11	-3.1
O=C(C[C@H]1CC[C@@H]2[C@H](COC[C@@H](O)CN2Cc2cccc(C(F)(F)F)c2)O1)NCCc1ccncc1	i	-3	-9	-2.8
O=C(C[C@H]1C[C@@H]2c3cc(NS(=O)(=O)c4ccc(F)cc4)ccc3O[C@@H]2[C@H](CO)O1)NCC1CC1	i	-2	0	-2.6
COc1ccc(CN(C)C[C@H]2OCCCC[C@H](C)Oc3ccc(NC(=O)Nc4ccccc4)cc3C(=O)N([C@@H](C)CO)C[C@H]2C)cc1	i	0	-16	6.1
O=C(Nc1ccc2c(c1)[C@H]1C[C@@H](CC(=O)N3CCOCC3)O[C@@H](CO)[C@H]1O2)c1ccc2c(c1)OCO2	i	0	-2	1.7
Cc1ccc(S(=O)(=O)Nc2ccc3c(c2)C(=O)N([C@@H](C)CO)C[C@H](C)[C@@H](CN(C)C(=O)c2ccncc2)OCCCC[C@H](C)O3)cc1	i	2	1	-2.0
CCNC(=O)C[C@@H]1CC[C@H]2[C@@H](COc3ccc(NC(=O)c4cccc(C(F)(F)F)c4)cc3C(=O)N2C)O1	i	0	-5	-2.7
CC(C)NC(=O)N1CC[C@@H]2[C@H]1c1cc(-c3cccc(F)c3)ccc1N(C)[C@H]2CO	i	-15	-46	22
Cc1noc(C)c1S(=O)(=O)N(C)C[C@@H]1OCCCC[C@@H](C)Oc2ccc(NC(=O)Nc3ccc4c(c3)OCO4)cc2C(=O)N([C@@H](C)CO)C[C@H]1C	i	-4	-3	-0.4
O=C(N[C@H](C(=O)N1CCC[C@H]1C(=O)NCc1ccccc1)C1CCCCC1)c1ccc(Cl)c(Cl)c1	i	-3	-2	3.4
COCC(=O)Nc1ccc2c(c1)C(=O)N(C)[C@H]1CC[C@H](CC(=O)NC3CCCC3)O[C@H]1CO2	i	-1	-2	-1.3
COCC(=O)Nc1ccc2c(c1)C(=O)N(C)[C@@H]1CC[C@H](CC(=O)NCc3ccccc3Cl)O[C@@H]1CO2	i	1	4	2.0
COc1ccccc1C(=O)N1C[C@@H]2[C@H](c3ccccc31)[C@H](CO)N2Cc1ccc(F)cc1	i	-5	-5	1.0
C[C@@H]1CCCCO[C@@H](CN(C)S(=O)(=O)c2ccc(F)cc2)[C@@H](C)CN([C@H](C)CO)C(=O)c2cc(NS(=O)(=O)c3ccc(F)cc3)ccc2O1	i	1	12	-2.8
C[C@@H]1CCCCO[C@H](CN(C)S(=O)(=O)c2cccs2)[C@H](C)CN([C@@H](C)CO)C(=O)c2cc(NC(=O)c3ccccc3)ccc2O1	i	2	1	-0.3
C[C@H](CO)N1C[C@H](C)[C@@H](CN(C)S(=O)(=O)c2cn(C)cn2)Oc2ccc(NC(=O)Nc3ccc4c(c3)OCO4)cc2CC1=O	i	3	5	-1.3
O=C(NCc1ccccc1)C1C(=O)Nc2ccccc2C(=O)N1C1CCCC1 (centres undefined)	i	6	5	0.7
CN1c2ccc(-c3cccc(C#N)c3)cc2[C@H]2[C@H](CCN2S(=O)(=O)c2cccc(F)c2)[C@H]1CO	i	-2	-1	1.4
C[C@@H]1CCCCO[C@@H](CN(C)C(=O)Nc2cccc3ccccc23)[C@H](C)CN([C@@H](C)CO)C(=O)c2cc(NC(=O)Nc3ccccc3)ccc2O1	i	3	5	0.1
COC(=O)[C@H](Cc1ccccc1)N[C@H](c1ccc(OC)cc1)[C@@H](O)Cc1ccccc1	i	-5	-4	-1.3
C[C@H](CO)N1C[C@H](C)[C@@H](CN(C)C(=O)NC2CCCCC2)OCCCC[C@H](C)Oc2ccc(NS(C)(=O)=O)cc2C1=O	i	0	2	1.6
Cc1ccc(S(=O)(=O)N(C)C[C@@H]2OCCCC[C@@H](C)Oc3ccc(NC(=O)C4CCCCC4)cc3C(=O)N([C@H](C)CO)C[C@H]2C)cc1	i	-3	-2	1.8
CC1(C(=O)NCc2ccccc2)CSCC(=O)N1Cc1cccc(F)c1 (centres undefined)	i	5	2	-3.4
C[C@H](O)[C@@H]1CN2CCc3c([nH]c4ccccc34)[C@@H]2C[C@@H]1N(C)CC1CCCCC1	i	19	6	-0.8
CCCNC(=O)C[C@H]1C[C@H]2c3cc(NS(=O)(=O)c4ccccc4)ccc3O[C@H]2[C@@H](CO)O1	i	-3	2	-1.4
Cc1cc(C)n(CCNC(=O)[C@@H](Cc2ccccc2)NC(=O)[C@H]2O[C@@H](n3ccc(=O)[nH]c3=O)[C@H](O)[C@@H]2O)n1	i	18	3	4.1
COc1ccc(NC(=O)N(C)C[C@@H]2Oc3c(NS(=O)(=O)c4ccc(F)cc4)cccc3C(=O)N([C@H](C)CO)C[C@@H]2C)cc1	i	-8	-13	4.1
N#Cc1cccc(-c2ccc([C@@H]3[C@H]4CN(C(=O)Nc5ccc(F)cc5)CCCCN4[C@H]3CO)cc2)c1	i	-20	-19	17
C[C@@H]1CCCCO[C@H](CN(C)S(=O)(=O)c2cn(C)cn2)[C@H](C)CN([C@@H](C)CO)C(=O)c2cc(NC(=O)Cc3ccccc3)ccc2O1	i	-1	-7	2.1
COC(=O)c1ccc(CN2C(=O)[C@]3(OCCC=C[C@H]3C)c3c(Br)cccc32)cc1	i	18	10	0.5
Cc1cccc(-c2cccc3[nH]c4c(c23)CCN2C(=O)[C@H]3[C@H](C)ON(C)[C@H]3C[C@@H]42)c1	i	-17	-18	0.1
COc1ccc(S(=O)(=O)N(C)C[C@@H]2OCCCC[C@@H](C)Oc3ccc(NC(=O)Nc4ccccc4)cc3C(=O)N([C@H](C)CO)C[C@H]2C)cc1	i	1	2	0.1
C[C@@H]1CCCCO[C@H](CN(C)C(=O)Cc2ccccc2)[C@@H](C)CN([C@@H](C)CO)C(=O)c2cc(NC(=O)CCC(F)(F)F)ccc2O1	i	-6	-5	-1.5
C=CCN=C1NC(CCc2ccccc2)C(C(=O)OC)=C(C)N1Cc1ccccc1C(F)(F)F (centres undefined)	i	-42	-72	-10.0
Cc1noc(C)c1S(=O)(=O)Nc1ccc2c(c1)C(=O)N([C@H](C)CO)C[C@H](C)[C@H](CN(C)CC1CC1)OCCCC[C@H](C)O2	i	0	4	-2.9
C[C@@H]1CN([C@@H](C)CO)S(=O)(=O)c2ccc(C#C[C@@H](C)O)cc2O[C@@H]1CN(C)CC1CCOCC1	i	5	18	1.7
COc1ccc2c3c(n(C)c2c1)[C@H](CO)N(C(=O)C1CCCC1)CC31CCN(C)CC1	i	2	-1	0.9
C[C@@H]1CCCCO[C@@H](CN(C)S(=O)(=O)c2ccc(Cl)cc2)[C@@H](C)CN([C@H](C)CO)C(=O)c2cc(NC(=O)Nc3ccc(C(F)(F)F)cc3)ccc2O1	i	5	7	-1.5
Further compounds
SMILES	FGF22 binding	rRNA inh HTS	rRNA inh HTS OD600	rRNA inh HTS RFP
C[C@@H]1CN([C@H](C)CO)C(=O)c2cccc(NS(=O)(=O)c3ccc(Cl)cc3)c2O[C@H]1CN(C)S(=O)(=O)c1ccc(F)cc1	i	-2	-10	0.3
COc1ccccc1NC(=O)N1C[C@H](O)COC[C@H]2O[C@H](CC(=O)N3CCC(Cc4ccccc4)CC3)CC[C@@H]21	i	-3	-27	-1.0
COc1ccc(-c2cc(NC(=O)Cc3c[nH]c4ccccc34)ccc2Nc2cccnc2)cc1F	i	-11	-13	3.7
CC(C)(C)NC(=O)C(c1cc2ccccc2o1)n1c(-c2ccc(-c3ccccc3)cc2)nc2ccccc21 (centres undefined)	i	14	17	4.2
C[C@H]1CCCCO[C@@H](CN(C)Cc2ccc(C(=O)O)cc2)[C@@H](C)CN([C@@H](C)CO)C(=O)c2cc(NS(=O)(=O)c3ccccc3)ccc2O1	i	-2	-10	3.4
O=C(Cc1c[nH]c2ccccc12)Nc1ccc(Nc2ccncc2)cc1	i	11	7	0.9
CCNC(=O)Nc1ccc2c(c1)C(=O)N(C)[C@@H]1CC[C@@H](CC(=O)NCCN3CCCC3)O[C@H]1CO2	i	-2	2	-2.5
CN1C(=O)c2cc(NC(=O)c3cccc(Cl)c3)ccc2OC[C@H]2O[C@@H](CC(=O)NC3CCCCC3)CC[C@H]21	+	-7	-13	2.3
CN1c2ccc(-c3cccc(C#N)c3)cc2[C@H]2[C@H](CCN2S(=O)(=O)c2ccc(F)cc2)[C@@H]1CO	i	-2	4	2.1
COc1ccc(NC(=O)Nc2ccc3c(c2)C(=O)N([C@@H](C)CO)C[C@H](C)[C@@H](CN(C)S(=O)(=O)c2cn(C)cn2)OCCCC[C@H](C)O3)cc1	i	-2	-2	-0.8
COc1ccc(NC(=O)N(C)C[C@@H]2OCCCC[C@@H](C)Oc3ccc(NC(=O)Nc4cccc5ccccc45)cc3C(=O)N([C@@H](C)CO)C[C@H]2C)cc1	i	-1	4	-3.0
Cc1cc(N2CCN(S(C)(=O)=O)C[C@@H]2C)ccc1N1CCN(Cc2ccccc2)[C@@H](C)C1	i	-11	-7	3.0
C[C@@H]1CCCCO[C@H](CN(C)S(=O)(=O)c2cccs2)[C@H](C)CN([C@H](C)CO)C(=O)c2cc(NC(=O)Cc3ccccc3)ccc2O1	i	-2	3	0.0
CN1CCN(C(=O)C[C@H]2C[C@@H]3c4cc(NC(=O)Nc5ccccc5F)ccc4O[C@@H]3[C@@H](CO)O2)CC1	i	0	-6	-2.8
C[C@@H]1CCCCO[C@@H](CN(C)S(=O)(=O)c2ccc(F)cc2)[C@H](C)CN([C@@H](C)CO)C(=O)c2cc(NC(=O)Nc3ccc(F)cc3)ccc2O1	i	0	13	0.2
O=C(C[C@@H]1CC[C@H]2[C@@H](COC[C@H](O)CN2C(=O)c2ccncc2)O1)NCc1cccc(F)c1	i	5	10	2.4

A draw from above in order of count of non-hydrogen atoms, ascending:
SMILES	FGF22 binding	rRNA inh HTS	rRNA inh HTS OD600	rRNA inh HTS RFP
O=C(Cc1c[nH]c2ccccc12)Nc1ccc(Nc2ccncc2)cc1	i	11	7	0.9
Cc1cc(N2CCN(S(C)(=O)=O)C[C@@H]2C)ccc1N1CCN(Cc2ccccc2)[C@@H](C)C1	i	-11	-7	3.0
O=C(C[C@@H]1CC[C@H]2[C@@H](COC[C@H](O)CN2C(=O)c2ccncc2)O1)NCc1cccc(F)c1	i	5	10	2.4
CN1c2ccc(-c3cccc(C#N)c3)cc2[C@H]2[C@H](CCN2S(=O)(=O)c2ccc(F)cc2)[C@@H]1CO	i	-2	4	2.1
CCNC(=O)Nc1ccc2c(c1)C(=O)N(C)[C@@H]1CC[C@@H](CC(=O)NCCN3CCCC3)O[C@H]1CO2	i	-2	2	-2.5
CN1CCN(C(=O)C[C@H]2C[C@@H]3c4cc(NC(=O)Nc5ccccc5F)ccc4O[C@@H]3[C@@H](CO)O2)CC1	i	0	-6	-2.8
CN1C(=O)c2cc(NC(=O)c3cccc(Cl)c3)ccc2OC[C@H]2O[C@@H](CC(=O)NC3CCCCC3)CC[C@H]21	+	-7	-13	2.3
C[C@@H]1CCCCO[C@H](CN(C)S(=O)(=O)c2cccs2)[C@H](C)CN([C@H](C)CO)C(=O)c2cc(NC(=O)Cc3ccccc3)ccc2O1	i	-2	3	0.0
C[C@H]1CCCCO[C@@H](CN(C)Cc2ccc(C(=O)O)cc2)[C@@H](C)CN([C@@H](C)CO)C(=O)c2cc(NS(=O)(=O)c3ccccc3)ccc2O1	i	-2	-10	3.4
COc1ccc(NC(=O)Nc2ccc3c(c2)C(=O)N([C@@H](C)CO)C[C@H](C)[C@@H](CN(C)S(=O)(=O)c2cn(C)cn2)OCCCC[C@H](C)O3)cc1	i	-2	-2	-0.8

Compound activity as filed in PubChem.
